# RanGTP-Imp inh: inhibitors of RanGTP-importin-beta interaction, primary screen, biochemical, FRET, CFP-Ran, YFP-importin-beta, homogeneous; Ran GTPase (GTP-bound) - importin-beta complex; cell-free CFP-Ran/YFP-importin-beta FRET ratio; inhibition, % (test concentration not listed); 300,000 tested, 1.1% active; AID 2216, 2009;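 active = most replicates above 15%; inconclusive = exactly half above 15%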;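 note: 0% = DMSO wells and 100% = Ran loaded with GDP instead of GTP; wells of about 40 µL received 100 nL stock; the first replicate is given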
# UCH37 DUB inh: inhibitors of human UCH37 deubiquitinase, primary screen, biochemical, Ub-AMC cleavage, fluorescence | purified proteasome/UCH37 | inhibition, % (concentration not given with the values) | 330,000 tested, 0.33% active | AID 588478, 2011;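 active = mean of two replicates above 20%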;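 note: 0% = compound-free wells with enzyme and 100% = wells lacking proteasome; stock transfer was 100 nL into about 20 µL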
# Target sequence (Q9Y5K5 whole entry, looked up): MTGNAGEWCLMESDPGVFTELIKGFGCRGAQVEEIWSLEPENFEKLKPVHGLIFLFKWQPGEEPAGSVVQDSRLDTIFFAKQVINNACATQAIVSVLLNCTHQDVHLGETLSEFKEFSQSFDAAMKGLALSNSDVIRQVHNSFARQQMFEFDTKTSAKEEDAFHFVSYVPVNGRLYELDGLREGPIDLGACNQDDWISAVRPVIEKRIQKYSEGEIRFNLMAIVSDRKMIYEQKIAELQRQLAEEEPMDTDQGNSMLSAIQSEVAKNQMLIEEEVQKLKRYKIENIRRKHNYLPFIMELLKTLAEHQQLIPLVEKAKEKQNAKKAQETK
#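 Signal – fluorescence, ex 355 nm, em 460 nm · System – Proteasome-bound UCH37 · Input – 0.15 nM proteasome as dispensed · Timing – 30 min preincubation with enzyme, 25 min cleavage at room temperature · Read-out basis – percent inhibition of cleavage signal versus uninhibited and no-proteasome wells · Medium – Tris-HCl pH 7.4 with ATP-MgCl2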
# HNF4A DNA FP: change in binding of human HNF4A to DNA, primary screen, biochemical, fluorescence polarization, FITC-DNA; Hepatocyte nuclear factor 4-alpha (Homo sapiens), P41235; 1 h; activity change, % at 10 µM; 360,000 tested, 0.3% active; AID 1224865, 2016; in the data active = activity change above about 30%, passing the limit was not always enough;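 note: controls were the assay level and a saturating level of protein; the project sought stronger binding though the title names inhibitors; some compounds called inactive have numbers as strong as hits; positive values seem to mean higher polarization but the record does not say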
# Target sequence (P41235 whole entry, looked up): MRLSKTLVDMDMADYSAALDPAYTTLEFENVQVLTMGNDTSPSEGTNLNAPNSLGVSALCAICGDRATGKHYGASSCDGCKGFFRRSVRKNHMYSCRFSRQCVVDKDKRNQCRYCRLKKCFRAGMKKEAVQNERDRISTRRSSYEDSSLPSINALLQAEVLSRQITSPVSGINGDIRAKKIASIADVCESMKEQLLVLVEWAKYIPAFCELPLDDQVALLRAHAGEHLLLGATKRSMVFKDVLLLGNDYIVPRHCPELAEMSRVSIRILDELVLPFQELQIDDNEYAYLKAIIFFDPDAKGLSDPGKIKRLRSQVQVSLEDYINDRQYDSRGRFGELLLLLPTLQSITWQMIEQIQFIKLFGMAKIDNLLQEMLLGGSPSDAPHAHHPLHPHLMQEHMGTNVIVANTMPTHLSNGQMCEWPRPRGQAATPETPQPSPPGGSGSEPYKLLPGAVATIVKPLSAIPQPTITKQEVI
# MLL AF4-AF9 inh: inhibitors of AF4 peptide binding to AF9, primary screen, biochemical, AlphaScreen, biotin-AF4 peptide, FLAG-AF9, single point; inhibition, % at 10 µM; 350,000 tested, 0.47% active;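 active = every replicate reaching a set inhibition limit, whatever the replicate mean, cut at about 25% in these data; inconclusive = mean inhibition reaches that limit but some replicates miss it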;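 note: 0% = plate neutral control median and 100% = total signal loss; the record names both 10 and 1 µM as test concentration; the first replicate is given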
# E coli growth: E. coli growth inhibition, primary screen, OD600; Escherichia coli growth, 23 h; stronger effect = lower value; OD600 absorbance (concentration not given with the values); 330,000 tested, 0.21% active; AID 1053175, 2014;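 active = OD600 absorbance below the run mean of sample wells minus 3.6 SD, in any replicate, cut at about 0.56 in these data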;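 note: stock transfer was 300 nL into about 60 µL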
# FGF22 binding: binders of human FGF22 protein, primary screen, FGF22 synaptogenesis inhibitor project, biophysical, thermal shift, single point; AID 651658, 2012; recombinant FGF22 thermal shift, SYPRO orange fluorescence; percent of sucrose octasulfate shift, DMSO zero; calls only at 9.99 µM; Fibroblast growth factor 22 (Homo sapiens), Q9HCT0; 340,000 tested, 1.5% active;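 active = melting point raised past a set limit in the mean and every replicate; inconclusive = no clear call; three in four hits are not shown here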
# Target sequence (Q9HCT0 whole entry, looked up): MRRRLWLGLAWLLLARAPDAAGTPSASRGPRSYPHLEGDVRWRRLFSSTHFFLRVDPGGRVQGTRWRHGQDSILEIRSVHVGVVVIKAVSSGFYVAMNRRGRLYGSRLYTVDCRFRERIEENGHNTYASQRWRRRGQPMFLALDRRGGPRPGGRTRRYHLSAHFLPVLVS
# Vif TR-FRET: inhibitors of Vif binding to APOBEC3G peptide, primary screen, biochemical, TR-FRET, GST-Vif 1-94, biotin-A3G peptide, dose response retest (AID 1117319) | inhibition, %, or IC50 in µM where a hit was titrated | 260,000 tested, 0.57% active | Virion infectivity factor (Human immunodeficiency virus type 1 group M subtype B (isolate … | TR-FRET GST-Vif / biotin-A3G peptide binding; higher % means a stronger effect; test concentration not given here; strong numbers were not always called active;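 active = above the screen mean plus three standard deviations and confirmed in dose response; inconclusive = results disagree or hit not tested in dose response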;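 note: Vif residues 1-94 fused to GST binding biotinylated APOBEC3G peptide 110-148; 0% = full assay without inhibitor and 100% = GST in place of GST-Vif; retest series ran down from 100 µM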
# The depositor's hits bear a star; i = inactive; ? = inconclusive; . = not tested or not shown; & = joins results of further samples.
SMILES,RanGTP-Imp inh,UCH37 DUB inh,HNF4A DNA FP,MLL AF4-AF9 inh,E coli growth,FGF22 binding,Vif TR-FRET
CC1C(=O)C(C)(C)C(=O)OC1c1ccccc1 (stereo unspecified),-1.5,2.2,0.7,2.3,0.643,i,4.0%
OCCn1c(SC2CCCCC2)nc2ccccc21,2.6,4.6,5.7,.,0.745,.,5.0%
O=C(Cc1c(Cl)cccc1Cl)NC1=NCCS1,-2.6,3.7,-4.6,.,0.698,.,-9.2%
CN(C)Cc1c(O)ccc2[nH]cnc12,0.7,4.5,-3.4,.,0.792,.,6.7%
CCOc1ccc(-n2c(=O)c3c4c(sc3n(CC(=O)NCC3CCCO3)c2=O)CCC4)cc1 (stereo unspecified),-0.3,4.2,-0.5,0.2,0.706,i,-9.1%
CC1CCCCN1S(=O)(=O)c1cccc2cccnc12 (stereo unspecified),5.9,3.6,2.2,3.7,0.737,i,5.0%
CCNC(=O)C(Sc1ccccc1)c1ccccc1 (stereo unspecified),1.9,4.5,3.3,.,0.678,.,.
CCCCc1c(-c2ccc(F)cc2)ncn1CCc1ccccc1OC,.,.,3.6,3.7,.,i,.
Cc1cccc(NC(=O)CSc2nc(-c3ccccc3)c(C#N)c(=O)[nH]2)c1C,1.5,2.0,-0.1,.,0.682,.,-14.3%
Cc1cc(C)c2c(n1)SCC(=O)N2CC(=O)Nc1c(C)cccc1C,-4.0,2.3,0.4,-3.0,0.758,i,-7.7%
CN(C)c1cccc(/C=C(\C#N)c2ccccc2)c1,0.4,-3.4,0.6,26.4*,0.691,i,-3.0%
Cn1c(CCNC(=O)c2cccs2)nnc1SCC(=O)Nc1nc(-c2ccccc2)cs1,6.3,-1.4,0.0,7.6,0.677,i,-11.6%&-4.8%
CCOC(=O)N1CCN(C(=S)NC2CCCC2)CC1,8.7,0.4,-1.8,-9.1,0.659,i,4.7%
Cc1ccc(O)c(N=CC2=C(O)c3ccccc3C2=O)c1,-4.7,15.1,-1.5,.,0.696,.,4.0%
CC(C)(C)c1cccc(Oc2nn[nH]n2)c1,-4.6,1.1,0.3,.,0.634,.,1.7%
O=C(NC12CC3CC(CC(C3)C1)C2)N1CCN(c2ccccn2)CC1,2.4,2.1,1.1,-1.7,0.632,.,9.9%
COC(=O)C1CC(Cl)CN1c1ncc(C(F)(F)F)cc1Cl (stereo unspecified),3.2,-1.4,2.0,-1.3,0.686,i,-1.2%
Cc1ccc(C=NNC(=O)C(=O)Nc2ccc(Cl)c([N+](=O)[O-])c2)cc1,.,.,5.9,-2.4,.,i,.
CCN(C(=O)CSc1ncccn1)c1c(N)n(Cc2ccccc2)c(=O)[nH]c1=O,.,.,-3.5,10.0,.,i,.
COCCCNC(=O)C1CC(=O)N(CCc2ccccc2)C1 (stereo unspecified),?,0.6,2.3,.,0.715,.,-2.0%
Cc1cccc(Nc2c([N+](=O)[O-])c(=O)oc3ccccc23)c1,-2.1,7.3,3.6,-1.1,0.706,i,.
CCCCC(=O)NC(Nc1nc(C2CC2)cs1)(C(=O)OCC)C(F)(F)F (stereo unspecified),5.8,-0.9,7.0,.,0.785,.,-2.7%
CCC(CC)C(=O)Nc1cccc(C(=O)c2ccccc2)c1,1.8,1.7,-1.8,.,0.663,.,0.4%
COCCCN1C(=O)c2[nH]nc(-c3ccccc3O)c2C1c1ccc(Cl)cc1 (stereo unspecified),0.9,3.8,0.0,.,0.676,.,7.8%
COC(=O)c1ccc(N(C(=O)CNC(=O)c2ccco2)C(C(=O)NCC2CCCO2)c2ccc(OC)c(OC)c2)cc1 (stereo unspecified),1.0,-0.3,-1.2,-5.0,0.674,i,.
CCOCCCNC(=O)C1CCCN(S(=O)(=O)CC)C1 (stereo unspecified),4.2,-0.2,1.5,.,0.764,.,1.5%
CCC(=O)NC(Nc1sc2c(c1C(=O)OC)CCN(C)C2)(C(F)(F)F)C(F)(F)F,66.4*,0.3,-2.3,.,0.716,.,30.7%
COC(=O)Cc1cc(=O)oc2cc(OC)ccc12,-0.7,-252.0,1.9,1.8,0.667,i,-2.6%
O=C(Nc1cc(S(=O)(=O)N2CCCCC2)ccc1N1CCCCC1)C1CC1,3.3,-1.0,-1.5,0.0,0.684,i,.
Cc1ccc(OCC(=O)N(C)CC(=O)N(CC(C)C)c2c(N)n(CC(C)C)c(=O)[nH]c2=O)c(C)c1,?,1.0,-2.9,-0.8,0.674,i,-4.8%
Cc1ccc(S(=O)(=O)c2cccc(S(=O)(=O)N3CCOCC3)c2)cc1S(=O)(=O)N1CCOCC1,-5.5,-0.5,-0.2,.,0.682,.,-0.8%
COCCC(=O)NC12CC3CC(CC(C3)C1)C2,-0.1,3.5,4.1,.,0.656,.,8.4%
COC(=O)Nc1[nH]ncc1[N+](=O)[O-],-4.5,1.5,3.2,-2.6,0.657,i,3.8%
COc1ccc(C(=O)C2CCCN(C(=O)c3ccnn3C)C2)c(C)c1 (stereo unspecified),4.7,-0.3,0.4,-1.2,0.659,i,1.1%
CC(C)Oc1ccccc1NC(=O)CSc1nc2ccccc2c(=O)n1C,-0.3,5.2,-0.6,-2.5,0.667,i,.
C=CCNC(=O)CNS(=O)(=O)c1ccc(F)cc1,-6.0,2.6,2.0,1.7,0.68,i,4.4%
COc1ccccc1/C=C/CN1CCC(Oc2ccc(C(=O)N3CCCC3)cc2)CC1,4.9,-1.8,-2.8,7.1,0.671,i,.
C/C(=N\NC(=O)c1c(Cl)cnn1C)c1cccc(NC(=O)C(C)C)c1,3.6,.,1.5,-0.1,.,i,-16.2%
CCOc1cccc(C(=O)Nc2ccccc2OC(F)F)c1,3.5,0.7,-0.4,.,0.697,.,68.4%
COc1ccccc1/C=C/C1C(C(=O)OCC(C)C)=C(C)N=C2SCCC(=O)N21 (stereo unspecified),-0.2,2.7,-3.5,15.0,0.695,i,16.5%
CC(=O)NC(Cc1ccccc1)C(=O)N1CCN(C(=O)c2ccco2)CC1 (stereo unspecified),1.0,1.6,-1.6,3.3,0.637,i,1.7%
Fc1ccc2c(c1)C(c1ccncc1)=NNC(c1ccc(Br)cc1)=N2,2.5,5.3,0.9,.,0.722,.,.
COc1ccccc1C(=O)NC(CCSC)C(=O)OCC(=O)NC(=O)NCc1ccco1 (stereo unspecified),-2.4,1.7,-0.9,.,0.785,.,4.9%&9.8%
OCC1(Cc2cccc(Cl)c2)CCCN(Cc2ccc(F)c(F)c2)C1 (stereo unspecified),7.0,-0.6,4.5,-2.5,0.65,i,.
O=C(Nc1ccc(NC(=O)c2cc3ccccc3o2)cc1)c1ccco1,-4.8,-8.9,3.5,0.6,0.665,i,.
COc1ccc(-c2nc(N)ncc2-c2ccc(OC)c(OC)c2)c(O)c1,1.6,-1.9,1.1,5.9,0.663,i,-6.7%
COCCn1c(SC(C)C(=O)NCC2CCCO2)nc2scc(-c3ccc(F)cc3)c2c1=O (stereo unspecified),0.5,1.3,5.0,0.5,0.696,i,-4.7%
CN(C1CCCC1)C1CCN(C(=O)CNC(=O)/C=C/c2ccccc2)CC1,-0.1,0.1,-0.3,.,0.699,.,.
N#CCC(=O)Nc1ccc(C(=O)OCC(=O)NC(=O)NCc2ccco2)cc1,.,-1.5,33.9*,1.5,0.601,i,-8.2%
CCn1c(C)nnc1SCC(=O)NC1CCCCCC1,5.1,0.4,4.8,-1.6,0.698,i,-0.8%
# (further entries)
SMILES,RanGTP-Imp inh,UCH37 DUB inh,HNF4A DNA FP,MLL AF4-AF9 inh,E coli growth,FGF22 binding,Vif TR-FRET
Cc1ccc2nsnc2c1NC(=O)c1cncc(Br)c1,3.6,9.8,-3.7,-0.7,0.683,i,1.2%
O=C(CCn1c(=S)[nH]c2ccccc2c1=O)NCCCN1CCCC1=O,-2.6,3.4,-2.4,.,0.663,.,4.7%
N#Cc1nc(COc2ccc(F)cc2)oc1N1CCN(Cc2ccccc2)CC1,-1.6,1.7,4.6,.,0.754,.,-3.8%
COc1ccccc1C/C(N)=N/OC(=O)c1cccs1,0.7,4.3,-0.4,-4.5,0.715,i,-7.2%
COc1ccc(C(=O)Nc2ccncc2)c(OC)c1,1.0,3.7,-1.8,-11.9,0.686,i,.
O=C(CSc1ccc2nnc(-c3ccccc3)n2n1)NCC1CCCO1 (stereo unspecified),4.4,-38.1,2.5,.,0.656,.,24.7%
O=C(NC1CCCCC1)c1ccccc1NC(=O)C1CC(=O)N(c2ccc(Cl)cc2)C1 (stereo unspecified),2.5,3.8,1.4,.,0.729,.,31.5%
CC(C)n1nnnc1C1c2ccccc2C(=O)N1Cc1cccs1 (stereo unspecified),.,.,-3.1,0.3,.,i,.
O=C(CC1NCCNC1=O)Nc1ccc2c(c1)OCO2 (stereo unspecified),-0.2,.,0.5,.,.,.,8.3%
CC(C)(C)c1nc(C(C)(C)C)c(Br)c(=O)[nH]1,-1.4,2.0,5.0,-2.6,0.707,i,?
CC1CN/C(=C\C(=O)c2ccc(Cl)cc2)C(=O)N1 (stereo unspecified),4.0,8.2,1.4,.,0.691,.,2.2%
Cc1ccc(S(=O)(=O)N2CCOCC2)cc1C(=O)OC(C)C(=O)c1ccccc1 (stereo unspecified),1.8,2.8,2.5,5.5,0.693,i,6.7%
CCSc1nnc(NC(=O)CCN2C(=O)C3CCCCC3C2=O)s1 (stereo unspecified),.,1.8,1.0,1.2,0.667,i,.
COc1cccc(NC(=O)[C@@H]2CCCN2C(=O)C2CCN(S(=O)(=O)c3ccc(C)cc3)CC2)c1,0.4,2.7,3.1,.,0.706,.,0.2%
O=C(CN1C(=O)c2ccccc2C1=O)Nc1sc2c(c1C(=O)NCc1ccco1)CCCC2,3.6,3.0,-0.1,.,0.68,.,1.3%
COC(=O)Cc1[nH]c(Cl)nc1C(N)=O,-3.9,0.9,.,3.5,0.668,i,-0.5%
CCCCN1C[C@H](CO)Oc2cccc(F)c2S1(=O)=O,.,.,-2.0,-3.5,.,i,.
C/C(=N\NC(=O)Cn1c(-c2ccccn2)nc2ccccc21)c1cccc(O)c1,3.7,.,-3.8,0.2,.,i,8.1%
CCCCCCN1C[C@H](n2cc(-c3ccc(F)cc3)nn2)[C@@H](O)C[C@@H]1c1ccccc1,.,.,-2.0,-0.4,.,i,2.4%
Cc1cc(C(C)C)n2c(nc3ccccc32)c1C#N,?,-81.2,.,.,0.699,.,-6.3%

# Only part of the results is shown. The share of hits here may be higher or lower than overall.
